Bfl-1 A1 inh – inhibitors of the anti-apoptotic protein A1, read as caspase activation. MEF A1-2A-BIM cells, Caspase-Glo 3/7 luminescence, 3 h; percent of clofoctol response, vehicle zero. caspase activation, % (test concentration not listed). hit rate 0.066% among 330,000;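 active means over half of replicate activation scores above 10%, or exactly half above 10 with the replicate mean above 10; inconclusive means replicate mean below 10 yet half the replicates above 10; inactive means over half of replicates below 10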;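 further: wells of about 30 µL received 50 nL stock; many hits fall short of the cut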
RanGTP-Imp inh – disruptors of Ran-importin-beta complex formation – biochemical, FRET, CFP-Ran, YFP-importin-beta, homogeneous, primary screen; hit rate 1.1% among 300,000; inhibition, % (no concentration beside the values); AID 2216; cell-free CFP-Ran/YFP-importin-beta FRET ratio;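 active means most replicates above 15%; inconclusive means exactly half above 15%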;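 further: 0% = DMSO wells and 100% = Ran loaded with GDP instead of GTP; wells of about 40 µL received 100 nL stock; the first replicate is given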
UCH37 DUB inh – blocks the human deubiquitinase UCH37; Q9Y5K5; purified proteasome/UCH37, Ub-AMC cleavage fluorescence; inhibition, % (no concentration beside the values); hit rate 0.33% among 330,000;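 active means mean of two replicates above 20%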;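 further: 0% = compound-free wells with enzyme and 100% = wells lacking proteasome; stock transfer was 100 nL into about 20 µL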
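Material: Human UCH37 enzyme supplied as purified proteasome complex | Schedule: 30 min preincubation with enzyme, 25 min cleavage at room temperature | Detection: AMC fluorescence 355/460 nm | Measure: % inhibition of Ub-AMC cleavage fluorescence | Controls: Wells without proteasome as full block, compound-free enzyme plus substrate as uninhibited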
Calb FLC – C. albicans growth modulation with fluconazole | C. albicans CaCi-2 (fluconazole-resistant clinical isolate) + fluconazole, Alamar Blue growth, 48 h | growth inhibition, % (no concentration beside the values) | hit rate 0.57% among 300,000 | AID 1979;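 active means most replicates above 75%; inconclusive means exactly half above 75%; inactive means most below 75%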;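 further: all wells also contain fluconazole at 8 µg/ml as a sub-toxic cotreatment; 0% = median of DMSO wells and 100% = median of geldanamycin control wells; wells of about 8 µL received 7.5 nL stock; the first replicate is given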
Beta apoptosis – blocks beta cell apoptosis; INS-1E cytokine-induced death, ATP luminescence, 48 h; percent of positive-control rescue, neutral wells zero; protection from apoptosis, % (concentration not given with the values); hit rate 0.8% among 300,000; AID 435005;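 active means all replicates at 75% or more, or half of them and the mean; inconclusive means half reach 75% but not the mean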;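 further: 0% = cytokine-treated negative control wells and 100% = positive control rescue; higher means more ATP so stronger rescue from cytokine killing; wells of about 40 µL received 100 nL stock; the first replicate is given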
T cruzi inh – blocks replication of Trypanosoma cruzi. T. cruzi beta-gal in NIH3T3, luminescence, 90 h. inhibition, % (test concentration not listed). hit rate 1.4% among 300,000. AID 1885;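 active means mean inhibition across valid replicates above about 55%, limit read from the data; inconclusive means mean below that limit but half or more replicates reach it; inactive means mean below it, under half of replicates reach it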;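 further: signal also drops with host cell toxicity which is not excluded here; 0% = plate median of DMSO wells and 100% = zero luminescence signal; higher percent means less beta-gal luminescence so fewer parasites; stock transfer was 50 nL into about 50 µL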
LANA-H2A inh – blocks KSHV LANA binding to histone H2A/H2B. Q9QR71. cell-free LANA-H2A/H2B peptide, fluorescence polarization. inhibition, % (test concentration not listed). hit rate 0.6% among 320,000. AID 2629; in the data active means inhibition mostly above about 10%, no sharp cut-off; inactive means mostly below about 6.7%;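 further: stock transfer was 7.5 nL into about 10 µL; 0% = median of vehicle wells and 100% = median of positive control wells; one replicate is shown; the record names a cut of 25% in any replicate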
Target sequence (Q9QR71 whole entry, looked up): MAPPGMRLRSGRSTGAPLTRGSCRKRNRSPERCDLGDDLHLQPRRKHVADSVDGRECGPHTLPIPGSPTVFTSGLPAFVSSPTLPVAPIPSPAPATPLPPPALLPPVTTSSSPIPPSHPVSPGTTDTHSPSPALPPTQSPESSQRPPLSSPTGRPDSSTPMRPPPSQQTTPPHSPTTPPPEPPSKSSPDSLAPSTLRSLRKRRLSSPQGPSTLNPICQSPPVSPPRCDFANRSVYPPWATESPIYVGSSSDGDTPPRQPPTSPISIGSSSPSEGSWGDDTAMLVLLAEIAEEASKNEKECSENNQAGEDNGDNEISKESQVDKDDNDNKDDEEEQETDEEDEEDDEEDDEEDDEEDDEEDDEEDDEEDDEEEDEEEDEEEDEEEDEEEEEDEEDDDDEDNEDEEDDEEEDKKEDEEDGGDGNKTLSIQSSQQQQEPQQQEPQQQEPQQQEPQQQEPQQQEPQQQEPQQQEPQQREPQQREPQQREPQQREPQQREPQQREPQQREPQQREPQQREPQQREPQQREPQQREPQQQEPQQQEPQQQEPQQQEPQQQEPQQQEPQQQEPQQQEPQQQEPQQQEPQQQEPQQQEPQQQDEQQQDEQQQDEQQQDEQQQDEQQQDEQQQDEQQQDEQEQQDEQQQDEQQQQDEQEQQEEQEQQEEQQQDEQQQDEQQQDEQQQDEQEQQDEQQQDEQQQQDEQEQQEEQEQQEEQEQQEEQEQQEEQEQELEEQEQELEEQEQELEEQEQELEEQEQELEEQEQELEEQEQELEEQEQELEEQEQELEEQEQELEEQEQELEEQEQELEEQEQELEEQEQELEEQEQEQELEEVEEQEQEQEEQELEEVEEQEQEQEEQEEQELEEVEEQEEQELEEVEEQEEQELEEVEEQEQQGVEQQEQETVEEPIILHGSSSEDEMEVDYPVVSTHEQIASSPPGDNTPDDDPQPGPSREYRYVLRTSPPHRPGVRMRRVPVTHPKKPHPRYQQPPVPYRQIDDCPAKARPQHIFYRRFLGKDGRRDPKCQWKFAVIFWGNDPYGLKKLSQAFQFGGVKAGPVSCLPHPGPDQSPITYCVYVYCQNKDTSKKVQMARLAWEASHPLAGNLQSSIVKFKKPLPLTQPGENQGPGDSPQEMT
Beta2AR agonist – human beta-2 adrenergic receptor agonism by FAP; P07550; Am2.2-beta2AR cells, FAP receptor internalization, flow cytometry; reference of the scale not given here; AID 504454; hit rate 0.43% among 340,000; response, % (test concentration not listed);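 active means response above a set limit, near 3 SD of response in nonfluorescent compounds, cut at about 42% in these data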;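 further: stock transfer was 100 nL into about 11 µL; a reference agonist was the positive control; negative values mostly stem from fluorescent compounds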
An asterisk follows results filed as active; ? = inconclusive; . = not tested or not shown.

No. | mol | Beta apoptosis | Beta2AR agonist | Calb FLC | Bfl-1 A1 inh | LANA-H2A inh | T cruzi inh | RanGTP-Imp inh | UCH37 DUB inh
1 | Cc1noc(C)c1COc1ccc(C(=O)OCC(N)=O)cc1 | -2 | 1 | -13 | 0.7 | 4.2 | -9 | 2.1 | 1.4
2 | Cc1ccccc1C(=O)NC(=S)Nc1ccc(N2CCN(C(=O)c3ccccc3)CC2)cc1 | -8 | -5 | -9 | -0.1 | 0.1 | 15 | -9.1 | 6.6
3 | CCCCNc1c(-c2cccc(SC(C)CC)c2)nc2ccc(Cl)cn12 (stereo not given) | 4 | 35 | . | -2.1 | 2.3 | . | . | 6.4
4 | COc1ccc(-c2noc(CCC(=O)O)n2)cc1 | -4 | 4 | -4 | 0.2 | . | -13 | -0.1 | 0.2
5 | COc1ccc(CN([C@H](CO)CC(C)C)S(=O)(=O)N(Cc2ccccc2)[C@H](CO)CC(C)C)cc1 | 19 | 16 | . | -0.1 | 0.2 | . | . | 4.5
6 | CCOC(=O)c1ccc(NC(=O)Oc2cc(C)c(Cl)cc2C(C)C)cc1 | -1 | 1 | -4 | 0.5 | 5.4 | -4 | -1.2 | .
7 | O=C(CN(C1CC1)S(=O)(=O)c1ccc(S(=O)(=O)N2CCCCCC2)cc1)Nc1ccccc1 | 6 | 1 | 6 | 0.2 | 2.4 | 11 | 2.1 | 1.3
8 | CCOC(=O)c1c(C)oc2ccc(NS(=O)(=O)c3ccc4c5c(cccc35)C(=O)N4)cc12 | 6 | -4 | -28 | 1.0 | -3.9 | -22 | 1.7 | -43
9 | O=C(c1cccc(S(=O)(=O)NCc2ccccc2)c1)N1CCCC1 | -5 | -4 | 3 | 0.0 | 3.4 | -7 | 0.8 | -0.8
10 | O=C(c1cccc(Oc2ccc([N+](=O)[O-])cc2Cl)c1)N1CCOCC1 | -5 | -7 | -1 | 0.5 | 5.5 | 0 | ? | 4.0
11 | COc1ccc(NC(=O)c2ccc(NC(=O)c3nc4nccc(C)n4n3)cc2)cc1 | 4 | -7 | . | 0.1 | -1.9 | . | . | 2.0
12 | Cc1cc(OCCOc2cccc3cccnc23)c(C)cc1Cl | -11 | 6 | -1 | 0.2 | -6.0 | -4 | ? | -0.1
13 | Cc1cc(NC(=O)c2ccco2)c(=O)n(Cc2c(F)cccc2Cl)c1 | 0 | 2 | 13 | 1.0 | 0.1 | 5 | -0.1 | 1.3
14 | CCCOC(=O)NC(CC)COC(=O)Nc1cc(C)ccc1C (stereo not given) | 3 | 3 | -1 | 1.1 | 46* | -4 | -1.3 | -3.0
15 | CC(C)CCNC(=O)c1ccc(CS(=O)(=O)Cc2ccccc2F)o1 | 0 | 1 | ? | 0.5 | 2.9 | 10 | -1.1 | 2.6
16 | CS(=O)(=O)Nc1ccc(C2=NN(C(=O)c3ccco3)C(c3ccccc3)C2)cc1 (stereo not given) | 4 | -25 | -2 | 0.6 | . | 2 | 3.9 | -6.0
17 | COc1cccc(OC)c1C(=O)N1CCN(c2ccccn2)CC1 | -5 | -2 | 19 | 0.6 | 0.6 | -5 | -1.3 | 0.3
18 | COc1ccccc1NC(=O)CSc1nc(O)c(Cc2ccccc2)c(=O)[nH]1 | -10 | -6 | -23 | -0.7 | -5.9 | -20 | 3.7 | 4.2
19 | Cc1cc(NC(=O)CSCC(=O)Nc2cc(Cl)ccc2N2CCN(C)CC2)no1 | -5 | 2 | . | -0.4 | -4.2 | . | . | 2.3
20 | CCCc1cc(=O)[nH]c(SCC(=O)N(C)C2CCCCC2)n1 | -3 | -2 | . | -0.8 | 4.1 | . | . | 2.0
21 | N#CC1(C#N)COC23CCCCC2C1(C#N)C(=N)O3 (stereo not given) | -8 | 2 | 20 | -0.6 | 9.9 | -12 | 31* | -21
22 | Cc1cccc(NC(=O)C2(c3ccc([N+](=O)[O-])cc3)CCCC2)c1 | 9 | 1 | 4 | 0.0 | -4.9 | 13 | -1.9 | 4.4
23 | Cc1ccc(NC(=O)Nc2cccc(C(F)(F)F)c2)nc1 | -2 | -8 | 2 | 0.6 | 3.2 | 11 | 0.6 | 3.7
24 | CC1CCCCN1C(=O)Cn1c(=O)n(CCC(=O)NCc2ccco2)c(=O)c2sccc21 (stereo not given) | 1 | 6 | -2 | 1.0 | -0.5 | 5 | ? | 1.3
25 | CC(C#N)Sc1ncnc2sc(-c3ccccc3)cc12 (stereo not given) | -1 | -7 | -9 | 0.8 | -0.6 | -1 | 7.5 | -0.2
26 | CCC/C(=N\NC(=O)c1ccco1)c1ccc(Cl)s1 | -1 | -7 | 7 | 0.4 | -1.2 | 1 | 1.7 | .
27 | CCOc1ccc2c(c1)OC1(CCC(C)C1)CC2=O (stereo not given) | -1 | -2 | -8 | 1.0 | 4.9 | 6 | -3.4 | 5.4
28 | CCN1C(=O)[C@@H]2[C@@H](c3ccc(-c4ccc(F)cc4)c(OC)c3)N3CCC[C@@]3(C(=O)OC)[C@@H]2C1=O | -3 | 10 | . | 0.6 | 4.9 | . | . | 3.0
29 | CN(Cc1ccco1)S(=O)(=O)c1ccc2c(c1)CCN2C(=O)CCC(=O)O | 1 | -1 | 0 | 0.0 | 6.1 | -2 | 1.7 | 2.6
30 | Cc1nc2ccc(NS(=O)(=O)c3c(C)c(C)cc(C)c3C)cc2s1 | 1 | -4 | . | -0.7 | 1.1 | 20 | 7.7 | -0.4
31 | Cc1cc(C)c(NC(=O)C2CCCN2C(=O)NC2CCCCC2)c(C)c1 (stereo not given) | -3 | 1 | -62 | -0.3 | -0.3 | -3 | -0.8 | 1.6
32 | CCOc1c2ccc(C(=O)NC3CCCc4ccccc43)cc2nn1C (stereo not given) | 3 | -5 | 3 | 1.6 | 5.5 | -11 | 3.2 | -55
33 | CCOC(=O)CN1CC23C=CC(O2)C(C(=O)N2CCN(c4ccc(F)cc4)CC2)C3C1=O (stereo not given) | -14 | -5 | -7 | -0.7 | 4.5 | -22 | ? | -2.3
34 | O=C(Cn1cc2c(n1)CCCCC2)N1CCc2ccccc2C1 | 1 | -7 | -3 | -0.2 | 0.7 | -15 | 1.7 | 2.1
35 | COC(=O)c1ccc(NC(=O)N2CCC(O)(c3cccnc3)CC2)cc1 | -1 | -2 | -1 | 0.5 | -1.0 | -9 | 9.8 | 4.2
36 | Cc1cc(NC(=O)CCC(=O)N(CC(=O)NCC2CCCO2)c2ccccc2)no1 (stereo not given) | -4 | -3 | -1 | -0.1 | -4.6 | -9 | 4.6 | 1.3
37 | C/C=C/c1cc(OC)c2c(c1)[C@H](C)[C@@H](c1ccc(O)c(OC)c1)O2 | -5 | -1 | 2 | 1.3 | 3.8 | 6 | 5.2 | 6.9
38 | COC(=O)CCc1c(C)c(C(=O)c2ccc(F)cc2)c2ccccn12 | -4 | -1 | 7 | -0.8 | 0.2 | -24 | 4.7 | -0.5
39 | Cc1ccc(NCc2nnc(SCC(=O)c3ccccc3)n2Cc2ccco2)c(C)c1 | -3 | -6 | 7 | 0.5 | 1.8 | 2 | 0.0 | 0.9
40 | COc1cc(OC)c2c(c1)S(=O)(=O)C(c1ccccc1)=C2N | 7 | 2 | 21 | -1.0 | -7.0 | 11 | 0.8 | 4.2
41 | COc1ccc(S(=O)(=O)NC(N)=NCCc2ccc(OC)c(OC)c2)cc1C | -5 | 1 | -19 | -0.7 | -4.3 | -1 | -3.1 | 1.2
42 | O=P(COCCOCCOCCOCP(=O)(c1ccccc1)c1ccccc1)(c1ccccc1)c1ccccc1 | -9 | -6 | 10 | 0.0 | -4.1 | 6 | 3.8 | 0.8
43 | Cc1cccc2c1N(CCCOc1ccc(C(C)(C)C)cc1)C(=O)C2=O | -11 | 1 | -7 | 1.0 | 2.3 | 16 | 0.3 | 6.7
44 | C=CCNC(=O)COC(=O)c1oc2ccccc2c1CSC1CCCCC1 | -2 | -14 | -7 | 0.0 | 5.2 | -23 | -3.3 | -2.0
45 | COc1cccc(Cn2cc(-c3cccc(C(F)(F)F)c3)nn2)c1 | 2 | -3 | -1 | -0.2 | 8.0 | 0 | 1.6 | 1.9
46 | Cc1sc(N)c(C(=O)c2ccccc2Cl)c1C | . | 3 | 2 | -0.9 | 3.3 | 3 | -0.6 | 1.0
47 | COc1ccc(C(=O)NC2CC2)cc1OC1CCN(Cc2ccc(NC(C)=O)cc2)CC1 | . | 2 | -19 | . | . | -4 | -2.5 | 3.2
48 | Cc1ccc(S(=O)(=O)C(CNC(=O)C(C)C)c2cccs2)cc1 (stereo not given) | -2 | 0 | 13 | 2.2 | -0.5 | -13 | 6.1 | 0.8
49 | CC(=O)c1ccccc1NS(=O)(=O)c1cccc2nonc12 | -3 | 1 | 34 | -0.6 | 4.3 | 2 | -3.7 | 1.3
50 | C=CCn1c(CNC(=O)c2cccs2)n[nH]c1=S | -3 | 1 | -8 | 0.3 | -0.5 | 5 | -1.5 | 3.3
51 | Cc1cccc(C)c1NC1=NC(=S)N(c2ccccc2)C12CCOC(C)(C)C2 (stereo not given) | -1 | 3 | 7 | 0.0 | -0.7 | -9 | 3.6 | 1.2
52 | CCOC(=O)CSc1nc2sc3c(c2c(=O)n1-c1ccc(C)cc1)CCN(C)C3 | -5 | -6 | 2 | -0.2 | -1.6 | 49 | 0.8 | -94
53 | Cc1ccccc1NC(=S)NC(C)C(c1ccccc1)N1CCN(C)CC1 (stereo not given) | . | 2 | -7 | -0.1 | 2.7 | -13 | 0.6 | -2.7

Part of the list above in order of number of heavy atoms, largest number first:
No. | mol | Beta apoptosis | Beta2AR agonist | Calb FLC | Bfl-1 A1 inh | LANA-H2A inh | T cruzi inh | RanGTP-Imp inh | UCH37 DUB inh
33 | CCOC(=O)CN1CC23C=CC(O2)C(C(=O)N2CCN(c4ccc(F)cc4)CC2)C3C1=O (stereo not given) | -14 | -5 | -7 | -0.7 | 4.5 | -22 | ? | -2.3
51 | Cc1cccc(C)c1NC1=NC(=S)N(c2ccccc2)C12CCOC(C)(C)C2 (stereo not given) | -1 | 3 | 7 | 0.0 | -0.7 | -9 | 3.6 | 1.2
44 | C=CCNC(=O)COC(=O)c1oc2ccccc2c1CSC1CCCCC1 | -2 | -14 | -7 | 0.0 | 5.2 | -23 | -3.3 | -2.0
31 | Cc1cc(C)c(NC(=O)C2CCCN2C(=O)NC2CCCCC2)c(C)c1 (stereo not given) | -3 | 1 | -62 | -0.3 | -0.3 | -3 | -0.8 | 1.6
38 | COC(=O)CCc1c(C)c(C(=O)c2ccc(F)cc2)c2ccccn12 | -4 | -1 | 7 | -0.8 | 0.2 | -24 | 4.7 | -0.5
37 | C/C=C/c1cc(OC)c2c(c1)[C@H](C)[C@@H](c1ccc(O)c(OC)c1)O2 | -5 | -1 | 2 | 1.3 | 3.8 | 6 | 5.2 | 6.9
48 | Cc1ccc(S(=O)(=O)C(CNC(=O)C(C)C)c2cccs2)cc1 (stereo not given) | -2 | 0 | 13 | 2.2 | -0.5 | -13 | 6.1 | 0.8
40 | COc1cc(OC)c2c(c1)S(=O)(=O)C(c1ccccc1)=C2N | 7 | 2 | 21 | -1.0 | -7.0 | 11 | 0.8 | 4.2
46 | Cc1sc(N)c(C(=O)c2ccccc2Cl)c1C | . | 3 | 2 | -0.9 | 3.3 | 3 | -0.6 | 1.0

Screens as filed in PubChem BioAssay.
